FGF22 binding: binders of recombinant human FGF22 by thermal shift. Q9HCT0. SYPRO orange fluorescence; percent of sucrose octasulfate shift, DMSO zero. calls only at 9.99 µM. hit rate 1.5% among 340,000;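 active means melting point raised past a set limit in the mean and every replicate; three in four hits are not shown here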
Target sequence (Q9HCT0 whole entry, looked up): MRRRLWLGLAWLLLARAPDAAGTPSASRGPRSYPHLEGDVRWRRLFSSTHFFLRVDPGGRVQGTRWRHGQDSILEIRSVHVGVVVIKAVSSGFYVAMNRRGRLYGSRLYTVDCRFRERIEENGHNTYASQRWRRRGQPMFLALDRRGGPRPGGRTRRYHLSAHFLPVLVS
Calls only; i = inactive; + = active, no number. Not all compounds are listed; the hit share may differ from the screen's.

mol | FGF22 binding
COc1ccc(NC(=O)Nc2cccc3c2O[C@H](CN(C)CC2CCCCC2)[C@H](C)CN([C@@H](C)CO)C3=O)cc1 | i
C[C@@H]1CN([C@H](C)CO)C(=O)c2cc(C3=CCCC3)cnc2O[C@@H]1CN(C)C(=O)Nc1ccc(C(F)(F)F)cc1 | i
O=C(Cc1ccncc1)NCC[C@H]1CC[C@@H](NC(=O)C2CCCCC2)[C@@H](CO)O1 | i
O=C(C[C@@H]1CC[C@@H]2NC[C@@H](O)COC[C@H]2O1)NCCN1CCCC1 | i
C[C@@H]1CN([C@@H](C)CO)C(=O)c2cc(NS(=O)(=O)c3cn(C)cn3)ccc2O[C@@H]1CN(C)Cc1ccc(C(=O)O)cc1 | i
C[C@H](CO)N1C[C@H](C)[C@H](CN(C)S(=O)(=O)c2ccc(F)cc2)Oc2ccc(NC(=O)CCN3CCOCC3)cc2C1=O | i
C[C@H](CO)N1C[C@H](C)[C@@H](CN(C)C(=O)Nc2ccc(F)cc2)OCCCC[C@H](C)Oc2ccc(NC(=O)Nc3ccc4c(c3)OCO4)cc2C1=O | i
C[C@H]1CN([C@@H](C)CO)C(=O)c2cccc(NC(=O)c3nc4ccccc4s3)c2O[C@H]1CN(C)C(=O)NC1CCCCC1 | i

Next section.
mol | FGF22 binding
C[C@@H]1CN([C@@H](C)CO)S(=O)(=O)c2ccc(C#C[C@@H](C)O)cc2O[C@H]1CN(C)CC1CCCC1 | i
C[C@H](CO)N1C[C@H](C)[C@H](CN(C)C(=O)Nc2cccc3ccccc23)Oc2ccc(NC(=O)C3CCCCC3)cc2CC1=O | i
C[C@H]1CN([C@@H](C)CO)C(=O)Cc2cc(NS(C)(=O)=O)ccc2O[C@H]1CN(C)Cc1ccc(C(=O)O)cc1 | i
CO[C@H]1CN(C)C(=O)c2ccc(NC(=O)c3ccccc3F)cc2OC[C@@H](C)NC[C@@H]1C | i
CS(=O)(=O)N1[C@H](C#N)[C@@H](c2ccccc2-c2ccccc2)[C@@H]1CO | i
C[C@H](CO)N1C[C@H](C)[C@@H](CN(C)C(=O)Cc2ccccc2)Oc2cc(-c3ccccc3)ccc2S1(=O)=O | i
C[C@@H](NC(=O)C[C@@H]1C[C@@H]2c3cc(NC(=O)c4cccnc4)ccc3O[C@@H]2[C@H](CO)O1)c1ccccc1 | i
CNC[C@H]1Oc2c(NS(C)(=O)=O)cccc2C(=O)N([C@H](C)CO)C[C@@H]1C | i

The list goes on:
mol | FGF22 binding
CC(C)[C@H](C)NC(=O)N(C)C[C@H]1OCc2ccccc2-c2c(n(C)c3ccccc23)C(=O)N([C@H](C)CO)C[C@H]1C | i
CCNC(=O)C[C@@H]1CC[C@@H]2[C@@H](COc3ccc(NC(=O)c4ccccc4)cc3C(=O)N2C)O1 | i
CCS(=O)(=O)Nc1ccc2c(c1)C(=O)N(C)C[C@@H](OC)[C@@H](C)CN(C(C)=O)[C@@H](C)CO2 | i
CNC[C@H]1OCCCC[C@@H](C)Oc2ccc(NS(C)(=O)=O)cc2C(=O)N([C@@H](C)CO)C[C@@H]1C | i
C[C@H](O)C#Cc1cnc2c(c1)C(=O)N([C@@H](C)CO)C[C@H](C)[C@@H](CN(C)Cc1cccc(F)c1)O2 | i
C[C@H](CO)N1C[C@H](C)[C@@H](CN(C)C(=O)Nc2ccc3c(c2)OCO3)OCCCC[C@H](C)Oc2ccc(NS(=O)(=O)c3cccs3)cc2C1=O | i
CO[C@@H]1CN(C)C(=O)c2cc(NC(C)=O)ccc2OC[C@H](C)N(Cc2ccccn2)C[C@H]1C | i
C[C@@H]1CN([C@H](C)CO)C(=O)Cc2cc(NC(=O)Cc3cn(C)c4ccccc34)ccc2O[C@H]1CN(C)C | i

The list goes on, overlapping the part above by two compounds.
mol | FGF22 binding
CO[C@@H]1CN(C)C(=O)c2cc(NC(C)=O)ccc2OC[C@H](C)N(Cc2ccccn2)C[C@H]1C | i
C[C@@H]1CN([C@H](C)CO)C(=O)Cc2cc(NC(=O)Cc3cn(C)c4ccccc34)ccc2O[C@H]1CN(C)C | i
O=C(Nc1ccc(F)cc1)N1CCCCN2[C@@H](CO)[C@H](c3ccc(C4=CCCCC4)cc3)[C@@H]2C1 | i
COc1ccccc1NC(=O)N1CCCCN2[C@@H](CO)[C@H](c3ccc(-c4cccc(F)c4)cc3)[C@@H]2C1 | i
CN(C)CC(=O)N1[C@H](CO)[C@H](c2ccc(-c3cccc(C(=O)N(C)C)c3)cc2)[C@@H]1C#N | i
N#Cc1ccc(-c2ccc([C@@H]3[C@H]4CNC[C@@H]3N4Cc3ccc4c(c3)OCO4)cc2)cc1 | i
C[C@H]1CN([C@@H](C)CO)C(=O)c2cc(-c3cccc(C#N)c3)cnc2O[C@@H]1CN(C)C(=O)c1ccccn1 | i
COc1cccc(-c2cn(CC[C@H]3CC[C@@H](NS(=O)(=O)c4ccccc4Cl)[C@@H](CO)O3)nn2)c1 | i
C[C@H]1CN([C@@H](C)CO)C(=O)Cc2cc(NC(=O)Cc3cn(C)c4ccccc34)ccc2O[C@H]1CN(C)C(=O)Nc1ccc(F)cc1 | i
COC(=O)C[C@@H]1C=C[C@H](NC(=O)c2ccccc2)[C@H](CO)O1 | i

Next part.
mol | FGF22 binding
C[C@H]1CCCCO[C@H](CN(C)Cc2ccc(C(F)(F)F)cc2)[C@@H](C)CN([C@@H](C)CO)C(=O)c2cc(NC(=O)Nc3ccc(C(F)(F)F)cc3)ccc2O1 | i
COCCNC(=O)C[C@@H]1C[C@@H]2c3cc(N(C)C)ccc3O[C@@H]2[C@H](CO)O1 | i
C[C@@H]1CN([C@@H](C)CO)C(=O)c2cccc(NS(C)(=O)=O)c2O[C@H]1CN(C)Cc1ccc(Cl)c(Cl)c1 | i
COc1ccc2c3c(n(C)c2c1)[C@H](CO)N(CC1CC1)CC31CCN(C(=O)c2ccc(F)cc2)CC1 | i
CCNC(=O)C[C@H]1CC[C@@H](NC(=O)NC2CCCCC2)[C@@H](CO)O1 | i
COc1ccccc1NC(=O)N1C[C@@H]2[C@H](c3ccccc31)[C@H](CO)N2Cc1ccccc1F | i
CN(C)C(=O)C[C@H]1C[C@@H]2c3cc(NS(=O)(=O)c4ccc(F)cc4)ccc3O[C@@H]2[C@@H](CO)O1 | i
O=C(C[C@@H]1CC[C@H]2[C@@H](COC[C@H](O)CN2Cc2ccccc2F)O1)NCc1ccccc1F | i

Six entries picked at random from the list so far, as already listed:
mol | FGF22 binding
COc1ccccc1NC(=O)N1CCCCN2[C@@H](CO)[C@H](c3ccc(-c4cccc(F)c4)cc3)[C@@H]2C1 | i
C[C@H](CO)N1C[C@H](C)[C@@H](CN(C)C(=O)Nc2ccc(F)cc2)OCCCC[C@H](C)Oc2ccc(NC(=O)Nc3ccc4c(c3)OCO4)cc2C1=O | i
C[C@H](CO)N1C[C@H](C)[C@H](CN(C)C(=O)Nc2cccc3ccccc23)Oc2ccc(NC(=O)C3CCCCC3)cc2CC1=O | i
CCNC(=O)C[C@H]1CC[C@@H](NC(=O)NC2CCCCC2)[C@@H](CO)O1 | i
C[C@H](CO)N1C[C@H](C)[C@@H](CN(C)C(=O)Cc2ccccc2)Oc2cc(-c3ccccc3)ccc2S1(=O)=O | i
COC(=O)C[C@@H]1C=C[C@H](NC(=O)c2ccccc2)[C@H](CO)O1 | i

(list continues)
C[C@@H]1CN([C@H](C)CO)C(=O)c2ccccc2-c2ccccc2CO[C@@H]1CN(C)Cc1cccnc1
  FGF22 binding: i

O=C(C[C@H]1CC[C@@H](NS(=O)(=O)c2ccc(F)cc2)[C@@H](CO)O1)N1CCc2ccccc2C1
  FGF22 binding: i

C[C@H]1CN([C@@H](C)CO)C(=O)c2cc(-c3ccc(F)cc3)cnc2O[C@H]1CN(C)S(C)(=O)=O
  FGF22 binding: i

C[C@@H]1CCCCO[C@@H](CN(C)C(=O)Nc2ccc(F)cc2)[C@@H](C)CN([C@H](C)CO)C(=O)c2cc(NS(=O)(=O)c3cccs3)ccc2O1
  FGF22 binding: i

Cc1nc2c(c(=O)c3ccccc3n2C)c(=O)n1C1CCCC1
  FGF22 binding: i

COc1ccccc1C#Cc1ccc([C@@H]2[C@@H](CO)N(C(=O)C3CCCCC3)[C@H]2C#N)cc1
  FGF22 binding: i

COCc1cc(N2CCN(C(=O)OC(C)(C)C)C[C@H]2C)ccc1Br
  FGF22 binding: i

CN1C(=O)c2cc(NC(=O)C3CCCC3)ccc2OC[C@H]2O[C@H](CC(=O)Nc3ccccc3)CC[C@@H]21
  FGF22 binding: i

CO[C@@H]1CN(C)C(=O)c2cc(NC(C)=O)ccc2OC[C@@H](C)N(Cc2ccccc2F)C[C@H]1C
  FGF22 binding: i

C[C@H]1CN([C@@H](C)CO)C(=O)c2cc(C#CCN(C)C)cnc2O[C@@H]1CN(C)C(=O)c1cccnc1
  FGF22 binding: i

CCCNC(=O)N1C[C@H](O)COC[C@@H]2O[C@H](CC(=O)OC)CC[C@H]21
  FGF22 binding: i

Cc1ccc(S(=O)(=O)N[C@H]2C=C[C@H](CC(=O)NCCCN(C)C)O[C@@H]2CO)cc1
  FGF22 binding: i

COCC#Cc1ccc([C@H]2[C@@H](CO)N3CCCCN(C(=O)Nc4cc(F)ccc4F)C[C@H]23)cc1
  FGF22 binding: i

C[C@H](CO)N1C[C@H](C)[C@@H](CN(C)Cc2ccncc2)Oc2ccc(NC(=O)CCCCCC(=O)Nc3ccccc3N)cc2CC1=O
  FGF22 binding: i

COCCNC(=O)C[C@H]1C[C@H]2c3cc(NC(=O)c4ccc5c(c4)OCO5)ccc3O[C@H]2[C@@H](CO)O1
  FGF22 binding: i

COCC#Cc1ccc([C@@H]2[C@H](C#N)N(C(=O)Cc3ccccc3)[C@H]2CO)cc1
  FGF22 binding: i

COCc1cn(CC[C@@H]2CC[C@@H](NC(=O)c3ccccc3)[C@@H](CO)O2)nn1
  FGF22 binding: i

C[C@H]1CN([C@@H](C)CO)S(=O)(=O)c2ccc(-c3ccccc3F)cc2O[C@H]1CN(C)S(C)(=O)=O
  FGF22 binding: i

COc1ccc(S(=O)(=O)N(C)C[C@H]2Oc3c(cccc3N(C)C)C(=O)N([C@@H](C)CO)C[C@H]2C)cc1
  FGF22 binding: i

C[C@@H]1CN([C@@H](C)CO)C(=O)c2cccc(NS(=O)(=O)c3cn(C)cn3)c2O[C@H]1CN(C)C(=O)Nc1cccc2ccccc12
  FGF22 binding: i

CN1C(=O)c2cc(NS(C)(=O)=O)ccc2OC[C@@H]2O[C@H](CC(=O)N3CCOCC3)CC[C@H]21
  FGF22 binding: i

CC(C)NC(=O)Nc1ccc2c(c1)C(=O)N([C@@H](C)CO)C[C@@H](C)[C@@H](CN(C)C(=O)CCC(F)(F)F)OCCCC[C@@H](C)O2
  FGF22 binding: i

O=C(Cn1nnc(N2CCOCC2)n1)NN=Cc1ccccc1Cl
  FGF22 binding: i

COc1cccc(-c2ccc3c(c2)[C@@H]2[C@@H](CCN2C(=O)C2CCC2)[C@@H](CO)N3)c1
  FGF22 binding: i

CN(C)C(=O)c1cccc(-c2cccc(-c3nc(C(=O)NCc4ccccc4)cc4c3[C@H](CCO)N([S@@](=O)C(C)(C)C)C4)c2)c1
  FGF22 binding: i

CO[C@@H]1CN(C)C(=O)c2cc(NC(=O)Nc3ccccc3)ccc2OC[C@H](C)N(C(C)=O)C[C@@H]1C
  FGF22 binding: i

COc1ccc(S(=O)(=O)Nc2ccc3c(c2)CC(=O)N([C@H](C)CO)C[C@@H](C)[C@H](CN(C)C(=O)Nc2ccc(F)cc2)O3)cc1
  FGF22 binding: i

CN1C(=O)c2cc(NC(=O)NCc3ccccc3)ccc2OC[C@H]2O[C@H](CC(=O)NCC3CCCCC3)CC[C@H]21
  FGF22 binding: i

COc1ccc(NC(=O)N(C)C[C@H]2Oc3ccc(NS(=O)(=O)c4ccc(OC)cc4)cc3C(=O)N([C@H](C)CO)C[C@H]2C)cc1
  FGF22 binding: i

COc1ccccc1CN(C)C[C@@H]1OCc2cn(nn2)CCCC(=O)N([C@@H](C)CO)C[C@@H]1C
  FGF22 binding: i

COc1ccc(NC(=O)N(C)C[C@@H]2Oc3c(NC(=O)c4nc5ccccc5s4)cccc3C(=O)N([C@@H](C)CO)C[C@@H]2C)cc1
  FGF22 binding: i

CCNC(=O)c1cc2c(c(-c3cccc(-c4cc5ccccc5o4)c3)n1)[C@@H](CCO)N(C(=O)NC(C)C)C2
  FGF22 binding: i

C[C@H](CO)N1C[C@H](C)[C@H](CN(C)CC2CCOCC2)Oc2ncc(C#Cc3cccc(F)c3)cc2C1=O
  FGF22 binding: i

Cc1noc(C)c1NC(=O)Nc1ccc2c(c1)C(=O)N([C@@H](C)CO)C[C@H](C)[C@@H](CN(C)CC1CCCCC1)OCCCC[C@H](C)O2
  FGF22 binding: i

CN(C)CC(=O)N1[C@H](CO)[C@@H](c2ccccc2)C12CN(C(=O)c1ccc(F)cc1)C2
  FGF22 binding: i

C[C@H](CO)N1C[C@H](C)[C@@H](CN(C)CC2CC2)Oc2c(NC(=O)NC3CCCCC3)cccc2C1=O
  FGF22 binding: i

COc1cccc(C#Cc2ccc3c(c2)O[C@H](CN(C)C(=O)c2ccccn2)[C@H](C)CN([C@H](C)CO)S3(=O)=O)c1
  FGF22 binding: i

O=C(C[C@@H]1CC[C@H]2[C@@H](COC[C@H](O)CN2S(=O)(=O)c2cccc(F)c2)O1)Nc1ccccc1
  FGF22 binding: i

O=S(=O)(c1ccccc1)N1CCCCN2[C@H](CO)[C@H](c3ccc(-c4cncnc4)cc3)[C@H]2C1
  FGF22 binding: i

CC=Cc1ccc2n(c1=O)C[C@@H]1[C@@H](CO)[C@H](C(=O)N[C@@H](C)c3ccccc3)N(C(=O)c3ccccn3)[C@H]21 (mixture of isomers)
  FGF22 binding: i

C[C@H](NC(=O)C[C@@H]1CC[C@@H]2[C@H](COC[C@@H](O)CN2C(=O)Nc2cccc(Cl)c2)O1)c1ccccc1
  FGF22 binding: +

C[C@@H]1CN([C@H](C)CO)C(=O)c2cc(C3=CCCCC3)cnc2O[C@H]1CN(C)Cc1ccccc1C(=O)O
  FGF22 binding: i

C[C@H](CO)N1C[C@H](C)[C@H](CN(C)Cc2ccc(-c3ccccc3)cc2)Oc2ccc(NC(=O)Nc3cccc4ccccc34)cc2CC1=O
  FGF22 binding: i

CC(C)NC(=O)N[C@H]1C=C[C@@H](CC(=O)NCc2ccc(Oc3ccccc3)cc2)O[C@@H]1CO
  FGF22 binding: i

CCCN1CCCCC(NC(=O)c2ccccc2C)C1=O (stereo not drawn)
  FGF22 binding: i
